Sfp inh = qHTS Assay for Inhibitors of Bacillus subtilis Sfp phosphopantetheinyl transferase (PPTase). 4'-phosphopantetheinyl transferase ffp (Bacillus subtilis), Q9F4F7. Biochemical Sfp PPTase activity, qHTS. Potency, µM, without a hit: max response, negative = inhibition, hits mostly inhibitors. actives 3.5% (n = 310,000); active = well fitted inhibition curve with a large enough effect; inconclusive = small, poorly fitted or top-dose-only effect, or another doubt; inactive = no such curve, though single readings can be large or run the other way;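 also: the enzyme is Sfp with the accession as filed and its product quenches rhodamine fluorescence; potency is read from the fitted curve at half-maximal effect; 0% = enzyme reaction without inhibitor and -100% = no enzyme wells; top concentration of the series not given in the record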
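Buffer: 50 mM Hepes-Na pH 7.6, 10 mM MgCl2, 0.01% Nonidet P-40, 0.01% BSA. Enzyme 15 nM, pre-exposed to compound 15 min; substrates then added and fluorescence change tracked over 30 min.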
gsp antagonist = qHTS for Antagonists of gsp, the Etiologic Mutation Responsible for Fibrous Dysplasia/McCune-Albright Syndrome: qHTS | gsp-mutant cells, cAMP HTRF, 30 min; control for the full effect not named in the record | Potency, µM (series often up to 76.9 µM), without a hit: top-dose activity change, negative = inhibition, actives largely listed as inhibitors | actives 0.4% (n = 340,000) | AID 624288, 2012; active = falling curve of any shape with a large fitted effect; inconclusive = falling curve, mostly with a smaller effect; inactive = flat or rising curve; cell line not stated here;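 also: intracellular cAMP measured with PDE inhibitor Ro 20-1724 present during compound exposure; potency is read from the fitted curve at half-maximal effect; % is scaled to controls: 0 for no effect and ±100 for the full control effect; nearly all actives have a fitted effect of over 65% in size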
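HTRF cAMP measurement after 30 min RT detection following 30 min, 37C compound treatment alongside […] (added as 300 uM solution) in G418-selected cells seeded at 2000/well and grown 16–24 h.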
ClpP mod = qHTS Assay for Activators of ClpP; purified B. subtilis ClpP, FRET peptide cleavage, 20 min; actives 1.9% (n = 340,000); Potency, µM (top dose mostly 57.5 µM), for the others: at the highest dose activity change, negative = active; AID 651965, 2013; ATP-dependent Clp protease proteolytic subunit (Bacillus subtilis (strain 168)), P80244; active = well fitted falling curve with a large enough effect; inconclusive = small, poorly fitted or top-dose-only effect; inactive = no such curve, though single readings can be large or run the other way; also: potency is read from the fitted curve at half-maximal effect; the source files actives as falling curves though it sought activators and does not explain the sign; nearly all actives have a fitted effect of over 65% in size; many hits overshoot -100%
Target sequence (P80244 whole entry, looked up): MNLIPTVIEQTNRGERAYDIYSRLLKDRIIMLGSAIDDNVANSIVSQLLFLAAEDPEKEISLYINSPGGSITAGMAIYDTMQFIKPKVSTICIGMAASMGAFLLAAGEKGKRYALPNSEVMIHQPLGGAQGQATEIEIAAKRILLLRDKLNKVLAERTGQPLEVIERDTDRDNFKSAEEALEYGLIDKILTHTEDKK
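Buffer: 100 mM Tris/HCl pH8, 100 mM KCl, 0.05% low protease BSA, 2.5% glycerol, 0.01% Tween-20. ClpP 10 microg/mL final; 20 min RT; delta FRET normalized to ADEP and DMSO controls.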
D2 ag = Beta-Arrestin HTS for Positive Allosteric Modulators of the Human D2 Dopamine Receptor: Agonists. D(2) dopamine receptor (Homo sapiens), P14416. DiscoveRx PathHunter D2 beta-arrestin, luminescence, 90 min; 100% = 57 uM dopamine signal. activation, % (no concentration beside the values). actives 0.084% (n = 360,000). AID 624465, 2012; in the data active = activation above about 40%; inconclusive = about 15% to 40%; inactive = below about 15%; also: compound concentration not given in the record; the text of the record calls up to 30% inactive
Target sequence (P14416 whole entry, looked up): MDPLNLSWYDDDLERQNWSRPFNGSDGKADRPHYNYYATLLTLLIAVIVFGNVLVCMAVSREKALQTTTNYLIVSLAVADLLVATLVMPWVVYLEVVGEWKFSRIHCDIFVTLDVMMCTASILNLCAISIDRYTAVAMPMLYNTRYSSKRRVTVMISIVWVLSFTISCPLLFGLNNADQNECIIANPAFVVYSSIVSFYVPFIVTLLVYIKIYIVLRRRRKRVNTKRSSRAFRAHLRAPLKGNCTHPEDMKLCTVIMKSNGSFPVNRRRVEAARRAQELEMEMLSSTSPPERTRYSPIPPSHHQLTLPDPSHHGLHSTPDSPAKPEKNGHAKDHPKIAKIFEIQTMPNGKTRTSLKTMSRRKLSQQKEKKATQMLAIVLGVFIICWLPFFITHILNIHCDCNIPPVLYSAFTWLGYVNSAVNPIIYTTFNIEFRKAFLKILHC
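Agonist mode: compounds alone added to overnight-plated D2 PathHunter cells for 90 min at 37 C, with 57 uM final dopamine (EC100) defining full response. Beta-arrestin recruitment detected by chemiluminescent reagent, read after 1 h at ambient temperature.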
gsp agonist = qHTS for Agonist of gsp, the Etiologic Mutation Responsible for Fibrous Dysplasia/McCune-Albright Syndrome: qHTS | Potency, µM (titrated, usually from 76.9 µM), for inactives: at the highest dose activation (cAMP increase), hits mostly activators | actives 0.13% (n = 340,000) | gsp mutant cells, cAMP HTRF, 30 min; control for the full effect not named in the record | AID 624287, 2012; active = well fitted activation curve with a large enough effect; inconclusive = small, poorly fitted or top-dose-only effect, or another doubt; inactive = no such curve, though single readings can be large or run the other way; cell line not stated here;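 also: phosphodiesterase inhibitor Ro 20-1724 added with compounds to block cAMP breakdown; potency is read from the fitted curve at half-maximal effect; nearly all actives have a fitted effect of over 60% in size; about a fifth of the inactives were tested at one dose only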
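Cells in DMEM/10% FBS with G418 were pretreated with compounds in DMSO plus […] (300 uM stock) for 30 min at 37C. cAMP was measured by HTRF (cAMP-d2 plus anti-cAMP antibody-K) after 30 min at room temperature.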
Menin-MLL FL inh = qHTS Assay for Inhibitors Targeting the Menin-MLL Interaction in MLL Related Leukemias: Competition With Fluorescein Labeled MLL-derived Peptide. AID 1766, 2009. 290,000 tested, under 10 active. Fluorescence polarization, fluorescein-MLL peptide displacement from menin. FP activity change, % at 61.4 µM; inconclusive = falling polarisation curve, or a change in total fluorescence; inactive = total fluorescence flat and polarisation flat or rising; no compound was filed as active; the % refers to the polarisation; negative = inhibition;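 also: % of control where 0% means no effect; inhibitors lower the polarisation; unlabelled MLL peptide was the positive control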
PINK1 expr mod = A Quantitative High throughput Screen to Identify Chemical Modulators of PINK1 Expression | PINK1 immunofluorescence, high-content cytometry, 24 h | Potency, µM (doses to about 76.6 µM), for the others: top-dose activation (PINK1 increase), most hits filed as activators | actives 0.2% (n = 410,000) | AID 624263, 2012; active = well fitted activation curve with a large enough effect; inconclusive = small, poorly fitted or top-dose-only effect; inactive = flat fitted curve, though single readings scatter; cell line not stated here;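 also: potency is read from the fitted curve at half-maximal effect; % of control where 0% means no effect; nearly all actives have a fitted effect of over 65% in size; a mitochondrial uncoupler was the plate control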
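Stable cell line treated 24 h with compounds at 5 concentrations (CCCP controls), then fixed and immunostained for PINK1 plus nuclear and cell stains; PINK1 immunofluorescence quantified by laser-scanning microplate cytometry.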
* hit, by the source's call; ? = inconclusive; . = not tested or not shown; & = joins results of further samples; [ ] = remark or other dose.

SMILES | Sfp inh | gsp antagonist | ClpP mod | D2 ag | gsp agonist | Menin-MLL FL inh | PINK1 expr mod
O=C(O)Cn1c(SCCOc2ccccc2F)nc2ccccc21 | 22% | -2% | 0.1% | -1.5 | -13% | 0.1 | 1.6%
CCOC(=O)c1ccc(NC(=O)CSC(=S)N2CCOCC2)cc1 | 11% | 0% | 0.6% | -6.4 | -30% | -0.1 | 2.6%
Cc1ccc(S(=O)(=O)N2CCC(C(=O)NCCC3=CCCCC3)CC2)cc1C | . | -15% | -0.9% | 1.7 | -17% | . | 5.7%
CCOc1ccc(NS(=O)(=O)c2ccc3c(c2)CCN3C(=O)C2CCC2)cc1 | 8% | -8% | 1.0% | 2.2 | -1% | 2.2 | 0.4%[38.3 µM]
COc1ccccc1NC(=O)CSc1nncn1N | 18% | 6% | -1.1% | -4.0 | -13%[15.4 µM] | 7.5 | 1.5%
CC(=O)c1ccc(NC(=S)N2CCN(c3cccc(Cl)c3)CC2)cc1 | 17% | 10% | . | -2.7 | 12%[15.4 µM] | -0.1 | 10%
OC(c1ccc(F)cc1)c1nc(-c2cccc(F)c2)cs1 (stereo not drawn) | . | . | -1.7% | 8.4 | . | . | 7.3%
CCOC(=O)/C(C#N)=C/c1c(N2CCN(c3ccc(OC)cc3)CC2)nc2c(C)cccn2c1=O | 2% | ? | 32µM* | -3.5 | -7%[15.4 µM] | 7.3 | 0.2%
O=C(CCn1c(=O)c2cccn2c2cccnc21)NCc1cccc(Cl)c1 | 6% | 11% | -8.9% | 2.8 | -3% | 0.8 | 6.2%
CCCCCC(=O)Nc1ccc(C(=O)CN2C(=O)NC3(CCCCCC3)C2=O)cc1 | . | 8% | . | -1.7 | 16%[15.4 µM] | . | 12%
c1ccc(N2CCN(Cc3cn4cccnc4n3)CC2)cc1 | 10% | 9% | -14% | 0.0 | 8% | 6.6 | 2.3%
Cc1ccc(C(=O)NNC2=NC(C)(C)Cc3ccccc32)cc1 | 11% | -8% | -1.1% | -5.7 | ? | 1.4 | -1.0%
O=C(NCc1ccc2c(c1)OCO2)C1CCC(CNS(=O)(=O)c2ccc(Cl)cc2)CC1 (stereo not drawn) | 2% | 6% | 0.6% | 2.5 | 18% | -4.0 | 11%[38.3 µM]
CCOC(=O)c1ccc(NC(=O)COC(=O)c2cccc(Oc3ccccc3)c2)cc1 | 10% | -8% | -7.3% | -0.8 | -23% | 1.3 | 1.9%
O=S(=O)(NC1CCCCCCC1)c1ccccc1 | 1% | 8% | -1.6% | -5.6 | -12%[15.4 µM] | -1.3 | 1.4%
CN(C)c1ccc(C2NC(=O)c3ccccc3N2)cc1 (stereo not drawn) | 0% | -25% | 38% | -2.0 | -12%[15.4 µM] | -5.5 | -1.5%
CCOC(=O)C1CCCN(C(=O)COc2ccc(N(C)S(=O)(=O)c3ccc(C)cc3)cc2)C1 (stereo not drawn) | 15% | -16% | 1.3% | -1.1 | 13% | -0.5 | 0.0%
O=C(NC1CCCC1)C(c1ccccc1)N(C(=O)c1ccco1)C1CCCC1 (stereo not drawn) | 8% | -4% | 1.8% | -2.7 | -3% | 1.0 | -1.9%[38.3 µM]
O=C(CSc1nncs1)Nc1ccc(Cl)cc1C(F)(F)F | . | 7% | 1.3% | 3.3 | -28% | . | 1.8%
O=C(NC1CCN(C(=S)NCc2ccco2)CC1)c1ccc(F)cc1 | 16% | -5% | -0.8% | -1.5 | -40%[inhibitor] | -0.5 | -0.7%[38.3 µM]
CCOC(=O)CN1C(=O)C(=O)c2cc(C)ccc21 | 2% | 20% | 1.1% | -12 | 6% | 4.8 | 11%
Nc1c(C(=O)NCc2ccco2)nnn1CC(=O)Nc1ccccc1 | -5% | 27% | 0.3% | -2.0 | -1% | 1.3 | 1.3%
O=C(Nc1ccc(N2CCCC2)cc1)c1ccc2ccccc2c1 | -1% | 3% | -1.3% | 0.4 | -4% | 5.6 | 1.7%
CC(OC(=O)C1=COCCO1)C(=O)c1ccc(C(C)(C)C)cc1 (stereo not drawn) | . | ? | -2.8% | -6.0 | 17% | . | -1.5%

4 of these compounds in another layout:
CCCCCC(=O)Nc1ccc(C(=O)CN2C(=O)NC3(CCCCCC3)C2=O)cc1
  Sfp inh = .
  gsp antagonist = 8%
  ClpP mod = .
  D2 ag = -1.7
  gsp agonist = 16%[15.4 µM]
  Menin-MLL FL inh = .
  PINK1 expr mod = 12%
c1ccc(N2CCN(Cc3cn4cccnc4n3)CC2)cc1
  Sfp inh = 10%
  gsp antagonist = 9%
  ClpP mod = -14%
  D2 ag = 0.0
  gsp agonist = 8%
  Menin-MLL FL inh = 6.6
  PINK1 expr mod = 2.3%
Cc1ccc(C(=O)NNC2=NC(C)(C)Cc3ccccc32)cc1
  Sfp inh = 11%
  gsp antagonist = -8%
  ClpP mod = -1.1%
  D2 ag = -5.7
  gsp agonist = ?
  Menin-MLL FL inh = 1.4
  PINK1 expr mod = -1.0%
O=C(NCc1ccc2c(c1)OCO2)C1CCC(CNS(=O)(=O)c2ccc(Cl)cc2)CC1 (stereo not drawn)
  Sfp inh = 2%
  gsp antagonist = 6%
  ClpP mod = 0.6%
  D2 ag = 2.5
  gsp agonist = 18%
  Menin-MLL FL inh = -4.0
  PINK1 expr mod = 11%[38.3 µM]

Next section
SMILES | Sfp inh | gsp antagonist | ClpP mod | D2 ag | gsp agonist | Menin-MLL FL inh | PINK1 expr mod
Cc1ccc(-c2nc(CS(=O)(=O)CC(=O)N3CCc4ccccc4C3)c(C)o2)cc1 | 5% | -13% | -25% | -1.5 | 16% | 3.1 | 3.0%
COc1ccc(OC)c(NS(=O)(=O)c2ccc3c(c2)C(C)(C)C(=O)N3C)c1 | 13% | -8% | 1.7%&-0.4% | 1.4 | ? | -2.9 | 0.0%&0.6%
COc1ccc(OC)c(C2c3c(oc4ccccc4c3=O)C(=O)N2CCCN(C)C)c1 (stereo not drawn) | 10% | 8% | -6.5% | -2.7 | 0% | 0.7 | 2.9%
CSCCC(NS(=O)(=O)c1ccc(Cl)cc1)C(=O)OCC(=O)c1ccc(F)cc1 (stereo not drawn) | 4% | 10% | -0.8% | -0.4 | -19% | -4.0 | -0.1%
CC(Sc1ncnc2sc(-c3ccccc3)cc12)C(=O)NCC1CCCO1 (stereo not drawn) | . | -15% | -18% | -0.1 | 5% | . | -0.1%
CCOC(=O)c1cnc2ccccc2c1NCCO | 19% | 4% | -1.4% | -0.8 | -2% | ? | -0.4%
CCOC(=O)COc1ccccc1/C=C1/NC(=O)NC1=O | 20% | 18% | -4.0% | -3.8 | ? | 7.7 | -0.8%
CCOc1ccccc1N(CC(=O)NC1CCCCC1)S(=O)(=O)c1ccccc1 | 11% | -13% | -5.3% | -9.1 | -2%[15.4 µM] | 0.5 | 5.4%
O=C(N/C(=C/c1cccnc1)C(=O)N1CCOCC1)c1ccccc1Cl | 16% | 6% | . | 1.9 | ? | 2.0 | -0.9%
CCN(CC)Cc1c(C(=O)N/N=C/c2cccs2)nnn1-c1nonc1N | 10% | -14% | . | 2.2 | 9%[15.4 µM] | 0.1 | -0.5%
COc1cnc(-c2ccccn2)nc1Sc1ccc(C)cc1 | ? | 14% | . | 1.8 | -14% | 1.2 | ?
CCn1c(SCC(=O)c2ccc(Br)cc2)nnc1C(C)NC(=O)Cc1ccc(OC)cc1 (stereo not drawn) | 2% | 6% | -1.5% | -0.4 | 11% | -1.7 | 1.7%[38.3 µM]
O=C1C(Cl)=C(N2CCOCC2)C(=O)N1c1ccccc1F | 9% | -4% | . | 4.0 | 22% | -1.5 | 0.9%
Cc1ccc(C2=NS(=O)(=O)N(C)C(C(=O)N3CCOCC3)=C2)cc1 | -3% | 6% | -14% | 1.0 | -13% | 0.1 | 0.7%
COC(=O)c1ccccc1C(=O)N(Cc1cccnc1)CC1CCCN(C2CCCCC2)C1 (stereo not drawn) | 14% | 4% | 0.3% | -3.5 | 14% | 0.5 | 0.1%
O=C(NCc1ccccc1Cl)C1CCCN1S(=O)(=O)c1ccccc1F (stereo not drawn) | 15% | -8% | -1.7% | -3.3 | -19%[15.4 µM] | -1.7 | -3.2%
N#Cc1sc2nc(-c3cccs3)cc(-c3ccc(F)cc3)c2c1N | 11% | -12% | -3.8% | 1.1 | 48% | -1.5 | ?
CCOC(=O)COc1ccc2c(c1)c(C(C)=O)c(C)n2-c1ccc(OC)cc1 | -17% | ? | 0.9% | 5.5 | -10%[15.4 µM] | 3.0 | 1.7%
O=C(c1cccc(F)c1)N1CCN(C(=O)c2cc3nc(-c4ccco4)cc(C(F)(F)F)n3n2)CC1 | 20% | -6% | . | 1.9 | -56%[inhibitor] | 6.9 | 0.3%
Cc1cc(C(=O)N/N=C/C(Cl)=C/c2ccccc2)c(C)o1 | 9% | -18% | . | -0.2 | ? | 2.6 | 0.7%
COc1ccc2cc(C[C@@H]3CC[C@@H](CO)O3)ccc2c1 | . | -8% | -4.1% | 0.4 | . | . | -0.8%
CC(C)CN1CCC(=O)N(CCC#N)CC1 | 19% | 6% | -1.7%&-4.4% | -1.7 | -51%[inhibitor] | -0.8 | 0.2%
N#Cc1ccc(-c2nc3ccc(Br)cc3c(=O)n2O)cc1 | 6% | -7% | -1.4% | 7.8 | ? | 0.9 | -3.6%
O=C(Cc1c(F)cccc1Cl)NNC(=O)c1ccncc1 | . | 6% | 0.0% | 7.9 | 1% | . | -0.5%
CC(=O)c1ccc(NC(=S)NC(=O)/C=C/c2ccc(F)cc2)cc1 | 0% | -1% | . | 7.3 | -17% | -17 | -0.6%
COC(=O)CCC(=O)N1CCc2cc(S(=O)(=O)N3CCN(c4ccccc4Cl)CC3)ccc21 | 10% | -2% | -2.1% | -1.8 | -1% | -0.9 | -0.1%

Compound activity from PubChem.
